Compound activity as filed in PubChem BioAssay.
ClpP mod = qHTS Assay for Activators of ClpP; ATP-dependent Clp protease proteolytic subunit (Bacillus subtilis (strain 168)), P80244; purified B. subtilis ClpP, FRET peptide cleavage, 20 min; Potency, µM (series often up to 57.5 µM), inactives show at the highest dose activity change, negative = active; hit rate 1.9% among 340,000; AID 651965, 2013; active = well fitted falling curve with a large enough effect; inconclusive = small, poorly fitted or top-dose-only effect; inactive = no such curve, though single readings can be large or run the other way; also: potency is read from the fitted curve at half-maximal effect; the source files actives as falling curves though it sought activators and does not explain the sign; nearly all actives have a fitted effect of over 65% in size; many hits overshoot -100%
Target sequence (P80244 whole entry, looked up): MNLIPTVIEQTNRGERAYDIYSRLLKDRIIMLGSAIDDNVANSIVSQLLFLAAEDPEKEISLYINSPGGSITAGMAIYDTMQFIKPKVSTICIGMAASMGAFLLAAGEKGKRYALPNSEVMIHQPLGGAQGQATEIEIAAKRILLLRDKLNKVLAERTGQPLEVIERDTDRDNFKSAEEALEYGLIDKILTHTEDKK
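Buffer: 100 mM Tris/HCl pH8, 100 mM KCl, 0.05% low protease BSA, 2.5% glycerol, 0.01% Tween-20. ClpP 10 microg/mL final; 20 min RT; delta FRET normalized to ADEP and DMSO controls.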
TRPML1 inh = human mucolipin-1 channel inhibition. Q9GZU1. TRPML1-inducible cells, Ca2+ dye fluorescence, FDSS; active compounds read low; inhibition of EC80 agonist-evoked calcium signal. activity change, negative = inhibition, % (concentration not given with the values). hit rate 0.02% among 390,000. AID 624415; in the data active means activity change below about -50%; inconclusive means about -30% to -50%; inactive means above about -30%;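 also: stimulus is agonist 54-4 at its EC80 concentration; % is scaled to controls: 0 for no effect and ±100 for the full control effect; the text of the record puts the active cut at -80%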
Target sequence (Q9GZU1 whole entry, looked up): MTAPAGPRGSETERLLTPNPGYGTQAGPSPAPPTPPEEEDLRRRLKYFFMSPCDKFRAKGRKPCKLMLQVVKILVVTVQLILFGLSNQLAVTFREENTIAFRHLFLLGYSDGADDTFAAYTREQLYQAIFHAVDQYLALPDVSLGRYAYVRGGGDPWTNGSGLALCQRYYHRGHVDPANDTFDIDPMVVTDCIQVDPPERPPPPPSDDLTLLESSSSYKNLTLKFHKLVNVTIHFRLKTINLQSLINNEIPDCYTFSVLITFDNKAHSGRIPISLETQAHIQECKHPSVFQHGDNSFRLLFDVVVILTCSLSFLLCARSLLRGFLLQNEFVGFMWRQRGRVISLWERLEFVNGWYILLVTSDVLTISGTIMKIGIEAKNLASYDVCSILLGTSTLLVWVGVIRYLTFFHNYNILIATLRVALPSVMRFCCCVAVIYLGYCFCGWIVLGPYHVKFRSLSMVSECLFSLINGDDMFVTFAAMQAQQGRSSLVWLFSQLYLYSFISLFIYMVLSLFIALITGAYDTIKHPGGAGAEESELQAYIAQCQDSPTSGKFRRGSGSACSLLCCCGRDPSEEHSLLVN
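Calcium fluorescence in TRPML1-DL cells induced overnight with Tet: a 110 s read after compound pin addition, then a 110 s antagonist read after challenge with 54-4 at 4 uM final (EC80).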
gsp agonist = activates gsp, the McCune-Albright syndrome mutation; gsp mutant cells, cAMP HTRF, 30 min; control for the full effect not named in the record; Potency, µM (top dose mostly 76.9 µM), for inactives: top-dose activation (cAMP increase), actives largely listed as activators; hit rate 0.13% among 340,000; active = well fitted activation curve with a large enough effect; inconclusive = small, poorly fitted or top-dose-only effect, or another doubt; inactive = no such curve, though single readings can be large or run the other way; cell line not stated here;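 also: phosphodiesterase inhibitor Ro 20-1724 added with compounds to block cAMP breakdown; potency is read from the fitted curve at half-maximal effect; nearly all actives have a fitted effect of over 60% in size; about a fifth of the inactives were tested at one dose only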
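Cells stably selected in G418 were plated at 2000/well, grown 16-24 hr, then given compounds in DMSO with the PDE inhibitor […] (300 uM solution added) for 30 min at 37C; cAMP was read by HTRF.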
Menin MLL FP FL = displaces fluorescein MLL peptide from human menin. 290,000 tested, under 10 active. FP activity change, % at 61.4 µM. Fluorescence polarization, fluorescein-MLL peptide displacement from menin; inconclusive = falling polarisation curve, or a change in total fluorescence; inactive = total fluorescence flat and polarisation flat or rising; no compound was filed as active; the % refers to the polarisation; negative = inhibition;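 also: % of control where 0% means no effect; inhibitors lower the polarisation; unlabelled MLL peptide was the positive control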
gsp antagonist = gsp mutant antagonism | AID 624288 | Potency, µM (titrated, usually from 76.9 µM), inactives show top-dose activity change, negative = inhibition, actives largely listed as inhibitors | hit rate 0.4% among 340,000 | gsp-mutant cells, cAMP HTRF, 30 min; control for the full effect not named in the record; active = falling curve of any shape with a large fitted effect; inconclusive = falling curve, mostly with a smaller effect; inactive = flat or rising curve; cell line not stated here;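 also: intracellular cAMP measured with PDE inhibitor Ro 20-1724 present during compound exposure; potency is read from the fitted curve at half-maximal effect; % is scaled to controls: 0 for no effect and ±100 for the full control effect; nearly all actives have a fitted effect of over 65% in size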
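G418-selected cells were plated in DMEM/10% FBS for 16-24 h at 37C, then treated with compounds plus the PDE inhibitor […] (300 uM solution added) for 30 min at 37C. Intracellular cAMP was measured by HTRF after 30 min lysis at room temperature.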
TRPML1 ag = human mucolipin-1 channel agonism; hit rate 0.12% among 410,000; Q9GZU1; activation, % (no concentration beside the values); TRPML1-expressing cells, Ca2+ dye fluorescence, FDSS; host cell line not named in the record; reference of the full effect not given here; in the data active = activation above about 50%; inconclusive = about 30% to 50%; inactive = below about 30%; also: 0% is about no effect; the text of the record puts the active cut at 80%
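TRPML1-DL cells, Tet-induced overnight (~16 h, 37 degrees C), loaded 45-90 min at room temperature with Ca8 no-wash calcium dye plus quencher. FDSS fluorescence: 10 s baseline, compound pin-transfer, 110 s agonist read, then EC80 54-4 (4uM final) and 110 s antagonist read.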
* = called active by the depositor; ? = inconclusive; / = not tested or not shown; & = joins results of further samples; [ ] = remark or other dose.

SMILES | ClpP mod | TRPML1 inh | gsp agonist | Menin MLL FP FL | gsp antagonist | TRPML1 ag
CCOC(=O)C1=C(COc2ccc(F)cc2Cl)NC(=O)NC1c1cc(C)ccc1C (configuration not stated) | -1.2% | 20.6 | -24.9% | -0.7 | 7.4% | -0.2
COc1cccc(Nc2nc(-c3ccccc3)nc3ccccc23)c1 | / | 3.3 | -52.4%[inhibitor][15.4 µM] | 3.5 | -12.8% | -0.9
CCOC(=O)CC(NC(=O)CCc1c(C)nc2c(c(C)nn2-c2ccc(C)c(C)c2)c1C)c1ccc(C)cc1 (configuration not stated) | -21.9% | -7.5 | / | / | / | -0.3
COC(=O)N/N=C/c1cn(Cc2ccc(F)cc2)c2ccccc12 | -3.6% | -1.5 | -27.8% | 2.3 | 3.9% | 1.6
Cc1c(C(=O)N(Cc2ccccc2)C(C)C)oc2ccc(S(=O)(=O)N3CCOCC3)cc12 | -2.5% | 63.1 | -56.7%[inhibitor] | 0.2 | ? | 1.7
c1ccc(-c2nnc(N3CCN(c4ccccn4)CC3)c3ccccc23)cc1 | 0.5% | 3.8 | -2.3% | -3.9 | -13.2% | 2.6
C=CCOC(=O)C1=C[C@H](C2CC2)[C@@H](CCCO)[C@H](OCC)O1 | 2.7% | 19.1 | -13.0% | -0.2 | -1.1% | 0.5
CCOCCCn1c(SCc2ccccc2)nnc1-c1ccncc1 | / | 29.9 | 10.9% | 0.8 | 4.2% | 0.9
CNC(=O)COC(=O)/C=C/c1cccc(F)c1 | 0.6% | -2.0 | -49.1%[inhibitor] | 0.9 | 1.9% | 0.6
Cc1cc(NC(=O)c2ccc3c(c2)OCO3)ccc1NC(=O)c1ccco1 | 0.3% | 0.3 | -40.9%[inhibitor] | 3.4 | -1.8% | 0.7
COc1ccccc1C(=O)C1CCCN(C(=O)c2cc(CC(C)C)nc(C)n2)C1 (configuration not stated) | -3.9% | -7.0 | 11.0% | -8.6 | 4.8% | 0.1
CC(=O)Nc1cccc(C(=O)Nc2ccc(S(=O)(=O)N3CCCCC3)cc2)c1 | 0.8% | 7.6 | -17.5% | / | 5.1% | 0.4
CCC1S/C(=N\S(=O)(=O)c2cccs2)N(C2CCCCC2)C1=O (configuration not stated) | 28.2µM* | 41.8 | -44.4%[inhibitor] | 2.7 | -18.2% | -0.3
Cc1cccc(N(C(=O)Cn2nnc3ccccc32)C(C(=O)NCc2ccco2)c2ccncc2)c1 (configuration not stated) | -2.7% | 13.5 | 3.3% | 2.1 | -2.5% | -0.7
COC(=O)c1ccc(NC(=O)CN(c2ccc(C)cc2)S(=O)(=O)c2c(C)n[nH]c2C)cc1 | -1.5% | -3.2 | -10.7% | -0.3 | -27.0% | 5.0
COCCn1c(CN2CC(C)CC(C)C2)nc2c1c(=O)n(C)c(=O)n2C (configuration not stated) | -1.8% | 3.5 | -5.7% | 1.0 | 8.5% | -0.3
O=C(NC(=S)NC1CCC(O)CC1)c1ccco1 (configuration not stated) | -0.5% | 21.4 | -29.6% | / | 2.0% | 1.5
CCc1nn2c(=O)cc(COC(=O)C(c3ccccc3)c3ccccc3)nc2s1 | -1.0% | -9.0 | / | / | / | 1.0
CCn1c(=O)n(-c2ccc(F)c(Cl)c2)c(=O)c2c3c(sc21)CN(C(C)=O)CC3 | -7.8% | -2.4 | / | / | / | -0.8
Cc1ccc2c(c1)N(CC(=O)NCCc1ccccc1)C(=O)CO2 | 0.0% | -11.0 | / | / | / | -0.5
O=C1c2ccccc2C(O)N1CCN1CCOCC1 (configuration not stated) | 1.6% | -1.1 | 18.3% | -2.2 | 8.1% | 0.1
C[C@@H](C(=O)N1CCNCC1)n1cc(CCCN=C(N)N)nn1 | -0.5% | -2.9 | / | -3.0 | 12.9% | -0.1
COc1ccc(N2CCN(C(=O)CN(c3ccc(OC)cc3)S(=O)(=O)c3ccccc3)CC2)cc1 | 0.3% | 9.3 | 25.9% | -0.2 | -2.9% | 0.7
CC(C)NC(=O)c1ccc(N(Cc2ccccc2)S(C)(=O)=O)cc1 | -1.4% | 4.0 | -2.6%[15.4 µM] | -9.1 | 5.9% | -0.3
Cc1ccc(S(=O)(=O)Nc2ccc(Cl)cc2C(=O)c2ccc(F)cc2)cc1 | -4.7% | -3.5 | 4.2% | 0.7 | 7.8% | 2.6
SMILES | ClpP mod | TRPML1 inh | gsp agonist | Menin MLL FP FL | gsp antagonist | TRPML1 ag
CC(=O)Nc1ccc(-c2nnc3n(Cc4ccc(C)cc4)c(=O)c4ccccc4n23)cc1 | -3.3% | -7.8 | / | / | / | -0.9
COc1ccc(N(C(=O)CSCC(=O)Nc2cc(C)on2)C(C(=O)NC2CCCCC2)c2ccc(O)c(O)c2)cc1 (configuration not stated) | 7.7% | -15.7 | -1.6% | 5.7 | -5.0% | -0.9
COc1ccc(CCNC(=O)C(=O)Nc2ccc3c(c2)OCCO3)cc1OC | 2.6% | -1.3 | -34.6%[inhibitor] | 2.0 | -15.0% | 1.7
CCOC(=O)C1=CN(Cc2ccco2)S(=O)(=O)N(C)C1c1ccccc1 (configuration not stated) | -0.4% | 0.8 | / | / | -5.0% | 0.6
CC(C)CC(C(=O)NC(C)(C)C)N(CC1CCCO1)C(=O)c1snc(C(N)=O)c1N (configuration not stated) | / | -10.0 | 1.7%[15.4 µM] | 0.7 | -1.8% | 0.8
CCCCCN(C(=O)CCC(=O)OCC(=O)Nc1ccc(C)cc1F)c1c(N)n(CCCC)c(=O)[nH]c1=O | 2.0% | -7.5 | 3.7%[15.4 µM] | / | -8.5% | -0.6
CCCc1cc(-n2ccnc2)n2c(nc3ccccc32)c1C#N | -7.1% | -3.4 | 23.0% | ? | -10.9% | 5.3
CCN1CCN(c2nc3c(c(=O)n(C)c(=O)n3C)n2CCSc2ncccn2)CC1 | 1.2% | 6.7 | 22.9% | 2.3 | 4.2% | 0.0
O=C1OCCC1=COCCCCCOC=C1CCOC1=O | -0.9% | 5.1 | 29.8% | / | / | 0.0
C=CCn1c(COc2ccccc2F)nnc1SCC(=O)N1CC(=O)Nc2ccccc21 | 1.3% | 22.8 | -33.4%[inhibitor] | 4.4 | -11.6% | 0.8
CCCCCCN1CC(=O)N2[C@@H](Cc3c([nH]c4ccccc34)C2(C)C)C1=O | -4.2% | 0.6 | -37.0%[inhibitor] | -2.1 | -9.5% | 0.0
O=C(NC(=S)Nc1ccc2[nH]c(=O)[nH]c2c1)c1cccc(F)c1 | 6.2% | 2.1 | -0.7%[15.4 µM] | 0.6 | 3.0% | -0.7
Cc1sc2ncnc(OCC(=O)NC(C)C(C)C)c2c1C (configuration not stated) | / | -6.1 | 20.2% | -0.6 | 2.2% | 0.0
Cc1ccc(CS(=O)Cc2ccc(C(=O)NCc3ccccc3Br)o2)cc1 (configuration not stated) | -1.0% | 9.2 | -30.4%[inhibitor] | 8.3 | -20.2% | -0.5
Cc1cc2c(cc1S(=O)(=O)C(C)CC(=O)NC1CCC(C)CC1)OCC(=O)N2 (configuration not stated) | 1.7% | 9.0 | / | / | / | 1.8
Cc1cccc(CN2CCN(CC(C)C)C(CCO)C2)n1 (configuration not stated) | -1.1% | 7.0 | -20.0% | -1.4 | 3.6% | -0.7
CCc1ccc(-n2nc(C)c3c(C(=O)N4CCN(c5ccccc5)CC4)cc(C)nc32)cc1 | -2.8% | -0.4 | / | / | / | -0.9
O=C(NCCCCCCNC(=O)c1ccncc1)c1ccncc1 | -0.8% | -7.6 | 5.7% | 1.9 | -0.6% | -0.4
COc1ccc(/C(O)=C2\C(=O)C(=O)N(CCN(C)C)C2c2cccc(OC)c2OC)cc1Cl (configuration not stated) | -1.6% | -3.3 | ? | -1.2 | 17.0% | 2.2
Cn1c2ccc(F)cc2c2ncn(Cc3ccco3)c(=O)c21 | 25.1µM* | -4.2 | -5.7% | 6.4 | 1.9% | -0.6
Cc1ccc(NC(=O)C2CCCN(S(=O)(=O)c3c(C)noc3C)C2)c(Br)c1 (configuration not stated) | -6.0% | 1.8 | -0.4% | / | -4.6% | 0.8
Cc1cccc(Nc2nnc(SC(C)C(=O)NC3CC3)s2)c1 (configuration not stated) | -0.2% | -6.2 | -3.9% | / | -4.4% | 0.3
Cc1cc(C(=O)NC2CCCCC2)on1 | 1.1% | -1.2 | -36.6%[inhibitor] | 2.6 | 0.3% | -0.6
O=C1C2CCCN2C(c2cccs2)N1c1ccc(F)cc1 (configuration not stated) | / | -4.4 | 29.9% | -1.0 | 5.1% | -0.3
CCOc1ccccc1C1CC(=O)Oc2c1c(=O)n(C)c1ccccc21 (configuration not stated) | 4.5% | 6.7 | / | / | / | -0.4

Two entries from above, with two lines to a compound.
Below each compound – ClpP mod	TRPML1 inh	gsp agonist	Menin MLL FP FL	gsp antagonist	TRPML1 ag
COc1ccc(/C(O)=C2\C(=O)C(=O)N(CCN(C)C)C2c2cccc(OC)c2OC)cc1Cl (configuration not stated)
  -1.6%	-3.3	?	-1.2	17.0%	2.2
O=C1OCCC1=COCCCCCOC=C1CCOC1=O
  -0.9%	5.1	29.8%	/	/	0.0

Further entries follow.
SMILES | ClpP mod | TRPML1 inh | gsp agonist | Menin MLL FP FL | gsp antagonist | TRPML1 ag
N=C(N)SCc1ccccn1 | 0.5% | 26.1 | -12.3% | -19.6 | 9.1% | -0.2
CCOC(=O)Nc1cc2c(cc1[N+](=O)[O-])-c1ccccc1C2=O | -1.3% | 11.5 | 0.3%[15.4 µM] | / | 8.0% | 0.4
O=[N+]([O-])c1ccc(CSCc2ccc([N+](=O)[O-])cc2)cc1 | -2.2% | 1.9 | -13.9% | / | -1.1% | 2.5
CCc1ccccc1NC(=O)C1CCN(c2cnccn2)CC1 | -10.4% | 8.2&-10.3 | 12.5%[15.4 µM] | 1.7 | 1.8% | -0.1&0.8
CSc1ccc(/C=C/C(=O)OCC(=O)NC2CC2)cc1 | 4.0% | 2.8 | -86.9% | / | -9.3% | -0.2
O=C1CN(Cc2ccccc2)CC(=O)N1 | / | -0.5 | -16.6% | / | -7.9% | -0.5
CC(CNC(=O)CCS(=O)(=O)c1cc2c(cc1Cl)NC(=O)CO2)c1ccccc1 (configuration not stated) | 1.8%&3.3% | 22.1&-14.8 | 12.9% | 0.9 | -2.9% | 0.5&4.6
CC(C)Oc1ccc(C(=O)Nc2c(C(=O)Nc3cccc(F)c3)oc3ccccc23)cc1 | ? | -6.0 | / | / | / | 0.1
COc1cc(/C=C(\C#N)c2nc3ccc(C)cc3[nH]2)cc([N+](=O)[O-])c1O | / | 3.1 | -35.1%[inhibitor] | 1.1 | 25.1µM* | 1.6
O=C(Nc1ccc(N2CCCCC2)cc1)c1cccnc1 | -16.6% | 22.3 | 22.2% | 3.0 | -8.1% | -1.0
C=CCn1c(SCc2ccc(F)cc2)nc2c1c(=O)[nH]c(=O)n2C | 0.1% | -7.4 | ? | 0.6 | -6.5% | -0.2
